# Screening results (PubChem BioAssay)
# Sa helicase inh = blocks Staphylococcus aureus DNA helicase | hit rate 0.05% among 120,000 | purified S. aureus helicase, fluorescence unwinding assay; about half of the hits fall short of the stated cut | inhibition, %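 (tested at about 80 µM)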 | AID 485395;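 active means both duplicates at 50% or more, or one of them with a favoured structure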;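 further: 0% = mean of negative control wells and 100% = mean of positive control wells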
# MgrA-DNA mod = modulators of Staphylococcus aureus MgrA DNA binding; fluorescence polarization; inhibition, %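 (about 10 µg/mL by stock and volumes)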; hit rate 0.13% among 84,000; AID 602314;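 active means above 50% in either of two replicates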;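 further: 0% = protein plus DNA without compound and 100% = DNA alone without protein; higher means less MgrA bound to DNA so lower polarization; one replicate is shown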
# An asterisk follows results filed as active; / = no result given. Only part of the results is shown; the hit share may differ from the screen's.
SMILES,Sa helicase inh,MgrA-DNA mod
COc1ccc(CC(=O)NCC2COc3ccccc3O2)cc1OC (configuration not stated),8.0,1.2
COc1ccc(N2CCN(C(=S)Cc3ccccc3)CC2)cc1,-11.0,/
Cc1nn(-c2ccccc2)c(Cl)c1CSc1nnc(N)s1,-5.0,/
CCOC(=O)C1=C(c2ccccc2)Nc2ncnn2C1c1ccncc1 (configuration not stated),6.0,2.0
CC(C)C(=O)Nc1ccc(N2CCN(C(=O)c3ccccc3)CC2)cc1,11.0,-9.4
O=C(Nc1ccc(Cl)cc1)NC1CC2CCC1C2 (configuration not stated),24.0,1.5
O=C(O)c1cc(-c2ccccc2)on1,4.0,-0.5
O=C(Nc1nccs1)c1ccc(CSc2ccccc2)o1,-6.0,2.9
C=CCn1c(CCC(=O)O)ccc1-c1ccccc1,9.0,/
COc1cccc(CN(Cc2ccco2)C(c2ccc(OC)c(OC)c2)c2nnnn2Cc2ccccc2)c1 (configuration not stated),-1.0,-4.2
CCCCCn1nc(C)c(/C=N\NC(=O)c2cccs2)c1C,3.0,-0.9
CCOC(=O)C1CCN(c2nc3ccccc3n2Cc2ccccc2F)CC1,-17.0,/
O=C(CCN1C(=O)c2ccccc2C1=O)Nc1cc(C(F)(F)F)ccc1Cl,/,-0.5
CC(=O)N1CCN(c2ccnc3cc(Cl)ccc23)CC1,/,2.5
CSC(=Nc1c(C)nn(C)c1C)NC#N,/,1.4
Nc1ccc(S(=O)(=O)Nc2ccc(I)cc2)cc1,30.0,-2.4
O=C1S/C(=C\c2cccs2)C(=O)N1Cc1ccccc1,-8.0,/
O=C(COC(=O)c1cc(NS(=O)(=O)c2cccs2)ccc1O)NC1CCCC1,-10.0,/
O=C(CC1CC(=O)Oc2ccccc21)NCc1ccccc1 (configuration not stated),4.0,-0.2
CCOCCOC(=O)C1=C(C)NC2=C(C(=O)CC(c3ccccc3)C2)C1c1ccc(N(CC)CC)cc1 (configuration not stated),/,-2.0
Cn1c(O)c(N=NC=C2C(=O)CC(C)(C)CC2=O)c2ccccc21,-11.0,/
CCOc1ccc(NC(=O)COC)cc1,19.0,1.0
CC1CCCC(C)N1CCCNC(=O)Cn1c(=O)c2cccn2c2ccccc21 (configuration not stated),16.0,/
O=c1c(Cl)c(N2CCN(c3ccccn3)CC2)cnn1-c1nc2ccccc2o1,13.0,/
CN1CCN(c2ccccc2NC(=O)c2cc3ccccc3o2)CC1,0.0,-0.9
# Additional entries follow:
SMILES,Sa helicase inh,MgrA-DNA mod
COC(=O)c1ccccc1NC(=O)COC(=O)c1ccccc1F,0.0,/
Cc1ccc(NC(=O)CSC2=NCCS2)c(C)c1,-2.0,/
Cc1ccc(OCCN2CCN(c3c4c(c(C#N)c5nc6ccccc6n35)CCC4)CC2)cc1,30.0,/
Cc1ccc(NC(=O)CN(C)C(=O)/C=C/c2ccco2)cc1,-10.0,/
O=S(=O)(c1ccccc1)N1CCC2CCCCC2C1 (configuration not stated),-5.0,/
Cc1cc(C)cc(Oc2coc3cc(OC(=O)C4CCCCC4)ccc3c2=O)c1,7.0,2.2
O=C(CSc1nnnn1-c1ccc(O)cc1)NC(=O)NC12CC3CC(CC(C3)C1)C2,7.0,/
Cc1cc(C)c(C#N)c(SCC(=O)NC(C)C23CC4CC(CC(C4)C2)C3)n1 (configuration not stated),/,-1.6
CC(=O)n1nc(C)cc1-c1ccccc1,11.0,-5.8
COc1cc(Cn2c(-c3ccc(O)c(OC)c3)nc3ccccc32)ccc1O,-8.0,/
O=C(COc1ccc(-c2ccccc2)cc1)N1CCN(c2ccccc2)CC1,11.0,0.9
CCN(C(=O)CSc1nnc(CSc2nc3ccccc3s2)n1C)C1CCCCC1,4.0,/
FC(F)(F)c1cccc(CSc2ncn[nH]2)c1,/,-0.7
Cc1[nH]c2ccccc2c1C(=O)CSc1cccc[n+]1[O-],-28.0,-2.4
CC1(C)CC(=O)C(=CN2CCN(C(=O)c3ccco3)CC2)C(=O)C1,8.0,3.9
CC(C)=CCC[C@](C)(O)C1CC=C(C)CC1 (some centres not stated),/,0.7
COc1cccc(C=Nc2ccc3c(c2)ncn3C)c1OC,6.0,0.0
COC(=O)CNC(=O)c1cccnc1Sc1ccc(C)cc1,/,-1.4
Cc1cc(C)n(CC(O)CN2C(=O)NC(C)(C)C2=O)n1 (configuration not stated),10.0,-0.8
O=C(CSc1c[nH]c2ccccc12)N1CCc2ccccc21,1.0,/
CSc1nnc(COc2ccc(Br)cc2)n1Cc1ccccc1,6.0,-0.8
O=C(CCCc1nc(-c2ccccc2)no1)NCc1cccnc1,0.0,/
Cc1ccc2nc(CCC(=O)N3CCCCCC3)[nH]c2c1,-14.0,0.5
CCC(C)NC(=O)c1c(O)c2cccc3c2n(c1=O)CCC3 (configuration not stated),-1.0,/
CCN(CC)Cc1oc(CO)cc(=O)c1O,6.0,/
# Next part
SMILES,Sa helicase inh,MgrA-DNA mod
CN(C)C(=O)NC1CCS(=O)(=O)C1 (configuration not stated),8.0,/
O=C(O)C1CC(O)CN1Cc1ccccc1 (configuration not stated),-1.0,-1.9
O=C(O)COCC(=O)Nc1ccc2c(c1)C(=O)OC2,/,-4.8
CCCCc1c(C)nc(SCC(=O)O)[nH]c1=O,8.0,2.0
NC(=O)c1cc2cc(Cl)ccc2oc1=Nc1cc(C(F)(F)F)ccc1Cl,/,1.6
CC(=O)N1SC(N)=NC1c1ccccc1 (configuration not stated),-12.0,-0.2
CC(C)NC(=S)NCc1cccc(Cl)c1,8.0,/
CCN(CC)C(=S)NC(=O)Cc1ccccc1,2.0,-1.2
O=C(NCCC1=CCCCC1)c1cc2cc3ccc(Cl)cc3nc2o1,9.0,0.3
CCCc1nnc2n1N=C(c1ccc(OC)c(OC)c1)CS2,-4.0,/
Cc1sc2ncn3cnnc3c2c1-c1ccc(F)cc1,-4.0,/
CCOC(=O)CSCCOc1ccc(/C=C2/C(=O)NC(=O)N(c3ccc(C)cc3)C2=O)cc1OC,/,1.7
O=C1C(CO)NC(=S)N1c1ccccc1 (configuration not stated),2.0,1.5
Cc1cc(Cl)c(C(N)=O)c(C)n1,-4.0,-2.1
CC(C)C(NC(=O)c1ccc(F)cc1)C(=O)N1CCN(Cc2ccccc2)CC1 (configuration not stated),4.0,/
CC(C)C(=O)N1N=C(c2ccco2)CC1c1cn(-c2ccccc2)nc1-c1ccccc1 (configuration not stated),16.0,/
Cc1cnc(C(=O)OCC(=O)c2ccc3c(c2)CCCC3)cn1,-10.0,/
CC(=O)Nc1ccc(-c2nc3ccccc3[nH]2)cc1,10.0,2.0
c1ccc(Sc2c(-c3ccccc3)nc3ncccn23)cc1,18.0,/
O=C(CCc1nnc2c(=O)n(-c3cccc(F)c3)ccn12)NCCC1=CCCCC1,3.0,/
CC12CC3(C(=O)O)C1CCC23C (configuration not stated),-20.0,-6.4
Oc1cccc(C=Nc2ccc(N3CCCCC3)cc2)c1O,3.0,-1.1
Cc1cc(-c2ccc(C)c(S(=O)(=O)N(CC(C)C)CC(C)C)c2)on1,10.0,/
Cc1c(C(=O)O)sc(=S)n1CCOc1ccccc1,11.0,4.8
Cc1noc(C)c1-c1nnc(-c2ccc(C(F)(F)F)cc2)o1,/,-0.9
# Further entries.
SMILES,Sa helicase inh,MgrA-DNA mod
CC(OC(=O)c1ccncc1)C(=O)Nc1ccc(N2CCOCC2)cc1 (configuration not stated),24.0,/
CC1CCc2nc(NC(=O)CN3C(=O)CCC3=O)sc2C1 (configuration not stated),-9.0,/
COc1ccccc1Oc1ccc(C(F)(F)F)cc1NC(=O)NC(=O)c1ccccc1F,/,1.7
CCNc1ccc(C2(O)C(=O)c3ccccc3C2=O)cc1,9.0,-3.5
O=C(Nc1cccc(Cl)c1)N1CCN(c2cc(C(F)(F)F)ccn2)CC1,/,4.2
CCC(=O)ONc1nc(C)cc(C)n1,-1.0,3.6
Cc1ccc(-n2c(C)cc(C)c(C#N)c2=O)cc1Cl,-7.0,-3.1
CCOc1ccc(-n2c(SCC(N)=O)nc3ccccc3c2=O)cc1,11.0,-2.0
C=CCc1ccccc1OCC(O)CN1CCN(c2ccccc2F)CC1 (configuration not stated),-5.0,/
CC(C)(C)C(=O)N1CCC(C(=O)NCc2ccco2)CC1,6.0,/
Cc1ccc(CN2CC(C(=O)NC(c3nc4ccccc4[nH]3)C(C)C)CC2=O)cc1 (configuration not stated),2.0,/
CCOC(=O)c1cc(C)nn1-c1nc2ccc(Cl)cc2s1,/,0.7
COc1ccccc1N(C)S(=O)(=O)c1ccc(C(=O)N=c2c3cnn(-c4ccccc4)c3nc3n2CCCCC3)cc1,-21.0,/
Nc1cnc(Sc2ccccc2)c(C(F)(F)F)c1,/,-1.9
NC(=O)C1(c2ccccc2)CCCC1,3.0,-1.4
CCc1cc2c3c(c(=O)oc2cc1OCC(=O)OC)CCCC3,4.0,/
Cn1c(=O)[nH]c(=O)c2cc(C(=O)c3cc(F)ccc3O)cnc21,-13.0,/
Cc1cc(=O)[nH]n(-c2ccccc2)c1=O,-19.0,/
CC1CCN(C(=O)Nc2ccccc2C(F)(F)F)CC1,2.0,0.4
CCCSc1nnc(NC(=O)c2ccccc2Br)s1,9.0,/
O=C(OCc1cc(=O)oc2cc(O)ccc12)c1ccc(Br)o1,10.0,/
Cc1nn(Cc2nnc(SCC(=O)C(C)(C)C)o2)c(C)c1Br,/,-4.0
CCN1CCN(C(=O)c2ccc(-c3ccccc3)cc2)CC1,-23.0,-0.7
CNC(=O)c1ccccc1Sc1cccc2cccc(COC(C)=O)c12,/,-0.6
O=C1CCC(=O)N1N1C(=O)c2ccccc2C1=O,3.0,5.4
# Continuation.
SMILES,Sa helicase inh,MgrA-DNA mod
O=C(c1noc2c1CCc1sccc1-2)N1CCCCC1,13.0,/
CCN(CC)S(=O)(=O)c1ccc(-c2cn3ccccc3n2)cc1,-9.0,1.9
Clc1cc(Cl)cc(C=NCc2ccccc2)c1,/,2.3
CC1=CC(C)(C)C(C(=O)O)C(C(=O)O)C1 (configuration not stated),10.0,-3.5
C#CCOC(=O)Nc1ccc(Oc2ccc(Cl)cc2)nc1,-31.0,/
CC(C)C(Sc1nnc(-c2ccccc2)n1-c1ccccc1)C(=O)NC(N)=O (configuration not stated),5.0,/
Cn1c(NCc2cc(Cl)ccc2O)nc2ccccc21,11.0,/
Cc1ccc(-c2noc(CCc3ccccc3)n2)cc1,3.0,/
Clc1ccc(CSc2nncn2-c2ccc3c(c2)OCCO3)cc1,-36.0,/
CC1CCCN(CCCNS(=O)(=O)c2ccc(-c3ccc(=O)[nH]n3)o2)C1 (configuration not stated),9.0,/
